Ecoli rRNA inh – inhibits bacterial ribosomal RNA function over humanized ribosomes; E. coli WT GFP vs humanized-ribosome RFP mutants, fluorescence, 24 h; stronger effect = lower value; DMSO median 0, no signal -100; GFP signal change (wild-type ribosome), % (concentration not given with the values); 350,000 compounds, 1.6% hits;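 active = significant combined selectivity score with lowered wild-type GFP, culture density cut under 30%, mutant RFP and density less affected; inactive = any of these conditions unmet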; also: one replicate is shown; some compounds called inactive have numbers as strong as hits
FGF22 binding – FGF22 (human) thermal shift binding | recombinant FGF22 thermal shift, SYPRO orange fluorescence; percent of sucrose octasulfate shift, DMSO zero | calls only at 9.99 µM | 340,000 compounds, 1.5% hits | AID 651658;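 active = melting point raised past a set limit in the mean and every replicate; three in four hits are not shown here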
Target sequence (Q9HCT0 whole entry, looked up): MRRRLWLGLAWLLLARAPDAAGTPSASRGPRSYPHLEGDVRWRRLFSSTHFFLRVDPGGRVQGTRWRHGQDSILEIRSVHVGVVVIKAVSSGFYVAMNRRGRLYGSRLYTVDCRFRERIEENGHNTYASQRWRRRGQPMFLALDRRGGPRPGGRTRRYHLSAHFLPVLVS
Ecoli rRNA inh OD600 – further read-out of Ecoli rRNA inh, marked with its call; OD600 change, %; measured here: OD600 growth;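 optical density of the mix in the first replicate; 0 = DMSO median and -100 = no signal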
Ecoli rRNA inh RFP – second read-out of Ecoli rRNA inh, no call of its own (marks repeat the call); RFP signal change, %; measured here: RFP humanized mutant strains;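 first replicate; 0 = DMSO median and -100 = no signal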
* hit, by the source's call; i = inactive; . = not tested or not shown.

Under each structure: Ecoli rRNA inh, Ecoli rRNA inh OD600, Ecoli rRNA inh RFP, FGF22 binding
Cc1noc(C)c1S(=O)(=O)N(C)C[C@H]1OCCCC[C@H](C)Oc2ccc(NS(=O)(=O)c3ccc(F)cc3)cc2C(=O)N([C@@H](C)CO)C[C@@H]1C
  5, 5, 0.7, i
C[C@@H]1CCCCO[C@@H](CN(C)C(=O)CCC(F)(F)F)[C@H](C)CN([C@@H](C)CO)C(=O)c2cc(NS(=O)(=O)c3cccs3)ccc2O1
  -2, -8, 2.2, i
CN(C)CC(=O)Nc1ccc2c(c1)[C@@H]1C[C@H](CC(=O)NCc3ccc4c(c3)OCO4)O[C@@H](CO)[C@@H]1O2
  3, 4, -0.8, i
C[C@@H]1CN([C@H](C)CO)C(=O)c2cc(NS(=O)(=O)c3ccc(F)cc3)ccc2O[C@@H]1CN(C)S(=O)(=O)c1ccccc1
  -1, -10, 5.0, i
CCCC(=O)N1CCC2(CC1)CN(C(=O)C1CCC1)[C@@H](CO)c1[nH]c3cc(OC)ccc3c12
  -2, -7, 0.5, i
CN(c1ccc(NC(=O)Cc2cn(C)c3ccccc23)cc1)c1ccccn1
  -4, -25, 17, i
Cc1[nH]c2ccccc2c1CC(=O)Nc1ccc(Nc2cccnc2)c(-c2ccc(Oc3ccccc3)cc2)c1
  9, 14, 0.1, i
COc1ccc(NC(=O)Nc2ccc3c(c2)C(=O)N([C@@H](C)CO)C[C@H](C)[C@@H](CN(C)S(=O)(=O)c2ccc(F)cc2)O3)cc1
  -2, -11, -2.1, i
CC(C)NC(=O)Nc1ccc2c(c1)C(=O)N([C@H](C)CO)C[C@@H](C)[C@H](CN(C)Cc1ccc3c(c1)OCO3)OCCCC[C@@H](C)O2
  4, 3, 1.2, i
C[C@H]1CCCCO[C@@H](CN(C)Cc2ccc(C(F)(F)F)cc2)[C@@H](C)CN([C@@H](C)CO)C(=O)c2cc(NC(=O)C3CCCCC3)ccc2O1
  -3, 7, -0.7, i
COc1cccc(S(=O)(=O)N2CCCCN3[C@H](CO)[C@H](c4ccc(-c5ccncc5)cc4)[C@@H]3C2)c1
  -34, -49, 11, i
COC(=O)C1=C(C)N(C)C(=NCc2ccccc2C(F)(F)F)NC1c1cccc(F)c1 (stereo unspecified)
  18, 16, 7.9, i
C[C@H](CO)N1C[C@H](C)[C@H](CN(C)S(=O)(=O)c2ccc(Cl)cc2)OCCCC[C@H](C)Oc2ccc(NS(=O)(=O)c3ccc(Cl)cc3)cc2C1=O
  -9, 0, -5.6, i
O=C(c1ccccn1)N1CC[C@@H]2[C@@H](CO)Nc3ccc(-c4ccccc4F)cc3[C@@H]21
  -1, -11, 3.9, i
COC(=O)C[C@H]1CC[C@@H]2[C@@H](COc3ccc(NS(=O)(=O)c4ccccc4F)cc3C(=O)N2C)O1
  -1, -6, 0.9, i
CO[C@@H]1CN(C)C(=O)c2cc(NC(=O)C3CCOCC3)ccc2OC[C@@H](C)N(CC2CCCCC2)C[C@H]1C
  3, 6, -1.6, i
Cc1ccccc1S(=O)(=O)N1CC[C@@H]2[C@H]1c1cc(-c3cccc(F)c3)ccc1N[C@@H]2CO
  -6, -6, 2.6, i
C[C@H](CO)N1C[C@H](C)[C@@H](CN(C)Cc2ccc(C(=O)O)cc2)OCc2ccccc2-c2c(n(C)c3ccccc23)C1=O
  -1, 3, -4.4, i
O=S(=O)(c1ccc(F)cc1)N1CC[C@@H]2[C@@H](CO)Nc3ccc(-c4ccc(F)cc4)cc3[C@@H]21
  -28, -60, 1.0, i
C[C@@H]1CN([C@@H](C)CO)C(=O)Cc2cc(NC(=O)Nc3ccc4c(c3)OCO4)ccc2O[C@@H]1CN(C)S(=O)(=O)c1cccs1
  -3, -17, -2.8, i
CN[C@H]1C[C@H]2c3[nH]c4c(-c5ccc6c(c5)OCO6)cccc4c3CCN2C(=O)[C@H]1[C@H](C)O
  2, -29, 5.6, i
COC(=O)C1=C(C)N(C)C(=NCc2ccc(C(F)(F)F)cc2)NC1c1cccc(F)c1 (stereo unspecified)
  -42, -75, -16, i
CC(=O)Nc1ccc2c(c1)C(=O)N(C)[C@@H]1CC[C@H](CC(=O)NC3CCCCC3)O[C@H]1CO2
  2, 5, -0.7, i
C[C@@H]1CCCCO[C@H](CN(C)C(=O)Nc2ccc3c(c2)OCO3)[C@@H](C)CN([C@H](C)CO)C(=O)c2cc(NC(=O)Cc3ccccc3)ccc2O1
  -1, 0, -1.5, i
COc1ccc2c3c(n(C)c2c1)[C@H](CO)N(C(=O)Cc1ccccc1)CC31CCN(C)CC1
  4, 6, -1.3, i
C[C@@H]1CN([C@H](C)CO)C(=O)Cc2cc(NC(=O)CCC(F)(F)F)ccc2O[C@H]1CN(C)Cc1ccc(Oc2ccccc2)cc1
  -8, -3, 1.9, i
O=C(C[C@@H]1C[C@@H]2c3cc(NS(=O)(=O)c4ccc(F)cc4)ccc3O[C@@H]2[C@@H](CO)O1)NCC1CC1
  1, -6, 0.7, i
Cc1noc(C)c1S(=O)(=O)N(C)C[C@H]1OCCCC[C@@H](C)Oc2ccc(NC(=O)CCC(F)(F)F)cc2C(=O)N([C@@H](C)CO)C[C@H]1C
  -3, -10, 0.8, i
CNC(=O)C[C@@H]1CC[C@@H]2[C@H](COc3ccc(NC(=O)NCc4ccccc4)cc3C(=O)N2C)O1
  2, -5, -1.0, i
CN(C)C(=O)c1ccc(-c2ccc3c(c2)[C@@H]2[C@@H](CCN2S(=O)(=O)c2ccccc2)[C@H](CO)N3)cc1
  -5, -14, -5.0, i

By substructure, the compounds so far with two or more sulfur atoms
Under each structure: Ecoli rRNA inh, Ecoli rRNA inh OD600, Ecoli rRNA inh RFP, FGF22 binding
Cc1noc(C)c1S(=O)(=O)N(C)C[C@H]1OCCCC[C@H](C)Oc2ccc(NS(=O)(=O)c3ccc(F)cc3)cc2C(=O)N([C@@H](C)CO)C[C@@H]1C
  5, 5, 0.7, i
C[C@@H]1CCCCO[C@@H](CN(C)C(=O)CCC(F)(F)F)[C@H](C)CN([C@@H](C)CO)C(=O)c2cc(NS(=O)(=O)c3cccs3)ccc2O1
  -2, -8, 2.2, i
C[C@@H]1CN([C@H](C)CO)C(=O)c2cc(NS(=O)(=O)c3ccc(F)cc3)ccc2O[C@@H]1CN(C)S(=O)(=O)c1ccccc1
  -1, -10, 5.0, i
C[C@H](CO)N1C[C@H](C)[C@H](CN(C)S(=O)(=O)c2ccc(Cl)cc2)OCCCC[C@H](C)Oc2ccc(NS(=O)(=O)c3ccc(Cl)cc3)cc2C1=O
  -9, 0, -5.6, i
C[C@@H]1CN([C@@H](C)CO)C(=O)Cc2cc(NC(=O)Nc3ccc4c(c3)OCO4)ccc2O[C@@H]1CN(C)S(=O)(=O)c1cccs1
  -3, -17, -2.8, i

(further entries)
| smiles | Ecoli rRNA inh | Ecoli rRNA inh OD600 | Ecoli rRNA inh RFP | FGF22 binding |
| --- | --- | --- | --- | --- |
| C[C@@H]1CCCCO[C@H](CN(C)C(=O)Nc2ccc(F)cc2)[C@@H](C)CN([C@@H](C)CO)C(=O)c2cc(NS(=O)(=O)c3ccc(F)cc3)ccc2O1 | -1 | -3 | 5.5 | i |
| Cn1cnc(S(=O)(=O)N2C[C@@H](O)COC[C@H]3O[C@@H](CC(=O)NC4CCC4)CC[C@@H]32)c1 | -2 | -2 | -2.4 | i |
| Cc1noc(C)c1S(=O)(=O)Nc1ccc2c(c1)C(=O)N([C@@H](C)CO)C[C@@H](C)[C@@H](CN(C)S(=O)(=O)c1cccs1)OCCCC[C@H](C)O2 | 0 | 4 | -0.3 | i |
| COc1ccc(NC(=O)Nc2cccc3c2O[C@H](CN(C)C(=O)Nc2ccc(C(F)(F)F)cc2)[C@@H](C)CN([C@@H](C)CO)C3=O)cc1 | 1 | 1 | 0.1 | i |
| C[C@H](CO)N1C[C@H](C)[C@H](CN(C)S(=O)(=O)c2ccc(F)cc2)OCCCC[C@H](C)Oc2ccc(NC(=O)Nc3ccc(F)cc3)cc2C1=O | 2 | 5 | -0.5 | i |
| COCc1cc(N2CCNC[C@H]2C)ccc1N1CCN(Cc2ccccc2)[C@@H](C)C1 | 12 | 16 | 4.0 | i |
| Cc1noc(C)c1S(=O)(=O)Nc1ccc2c(c1)C(=O)N([C@@H](C)CO)C[C@H](C)[C@@H](CN(C)C(=O)CCCN(C)C)OCCCC[C@H](C)O2 | 1 | 2 | 0.1 | i |
| Cc1ccc(S(=O)(=O)N2C[C@@H]3N[C@H](C2)C3c2ccc(-c3ccc(C(=O)N(C)C)cc3)cc2)cc1 (stereo partly specified) | -5 | -2 | -3.9 | i |
| CN1C(=O)c2cc(NC(=O)c3cccc(Cl)c3)ccc2OC[C@@H]2O[C@H](CC(=O)NC3CCCCC3)CC[C@@H]21 | -6 | 2 | 1.1 | i |
| COc1ccc(NC(=O)Nc2ccc3c(c2)[C@H]2C[C@@H](CC(=O)N4CCOCC4)O[C@@H](CO)[C@H]2O3)cc1 | 1 | -6 | -1.5 | i |
| COc1ccccc1NC(=O)N1C[C@@H](O)COC[C@H]2O[C@@H](CC(=O)N3CCC(Cc4ccccc4)CC3)CC[C@@H]21 | i | . | . | i |
| O=C(c1ccccn1)N1C[C@@H]2[C@H](c3ccccc31)[C@@H](CO)N2C(=O)c1ccccn1 | 0 | 7 | -0.3 | i |
| CN(C)CC(=O)Nc1ccc2c(c1)[C@H]1C[C@@H](CC(=O)NCc3ccccc3F)O[C@@H](CO)[C@H]1O2 | 1 | -9 | 1.0 | i |
| O=C(C[C@@H]1CC[C@@H]2[C@H](COC[C@@H](O)CN2C(=O)c2cccnc2)O1)Nc1ccc(-c2ccccc2)cc1 | 3 | 6 | 25 | i |
| C[C@@H]1CCCCO[C@H](CN(C)S(C)(=O)=O)[C@H](C)CN([C@@H](C)CO)C(=O)c2cc(NS(C)(=O)=O)ccc2O1 | -1 | -1 | -1.4 | i |
| CN(C)C(=O)C[C@@H]1C[C@@H]2c3cc(NC(=O)Nc4ccccc4)ccc3O[C@@H]2[C@@H](CO)O1 | -1 | 0 | 0.5 | i |
| Cc1cc(Nc2cccc([N+](=O)[O-])c2)cc(=O)n1-c1cccc([N+](=O)[O-])c1 | 2 | 9 | -2.2 | i |
| CCCNC(=O)Nc1ccc2c(c1)C(=O)N(C)[C@H]1CC[C@H](CC(=O)O)O[C@H]1CO2 | 6 | 2 | -2.0 | i |
| CCC(=O)N1CC[C@@H]2[C@@H](CO)Nc3ccc(-c4cccc(C#N)c4)cc3[C@@H]21 | 1 | 4 | -0.8 | i |
| CNC(=O)C[C@H]1CC[C@@H]2[C@H](COc3ccc(NC(=O)c4cc(C)on4)cc3C(=O)N2C)O1 | 8 | 10 | 8.3 | i |
| COCC(=O)Nc1ccc2c(c1)C(=O)N(C)[C@@H]1CC[C@H](CC(=O)O)O[C@@H]1CO2 | 2 | 8 | -3.2 | i |
| Nc1ncnc2c1ncn2[C@@H]1O[C@H](C(=O)N[C@@H](CCc2ccccc2)C(=O)NCC(=O)N2CCOCC2)[C@@H](O)[C@H]1O | 28 | 9 | 2.0 | i |
| COC(=O)C1=C(C)N(Cc2ccccc2C(F)(F)F)C(=NCc2ccc3c(c2)OCO3)NC1c1ccc(Cl)cc1 (stereo unspecified) | -42 | -75 | -12 | i |
| C[C@@H]1CN([C@@H](C)CO)C(=O)c2cc(NC(=O)Nc3cccc4ccccc34)ccc2O[C@@H](C)CCCCO[C@@H]1CN(C)S(=O)(=O)c1cccs1 | -3 | 6 | -1.1 | i |
| CNC(=O)C[C@@H]1CC[C@@H]2[C@H](COc3ccc(NC(=O)c4ccccc4F)cc3C(=O)N2C)O1 | 4 | 12 | -2.4 | i |
| C[C@H](CO)N1C[C@H](C)[C@@H](CN(C)S(=O)(=O)c2cccs2)Oc2ccc(NC(=O)CCCN(C)C)cc2CC1=O | 3 | 2 | 0.9 | i |
| Cc1ccc(-c2ccc([C@@H]3[C@@H]4CN(Cc5ccccc5F)C[C@H]3N4)cc2)cc1 | -58 | -77 | -15 | i |
| C[C@@H]1CN([C@H](C)CO)C(=O)Cc2cc(NC(=O)Cn3cnnn3)ccc2O[C@@H]1CN(C)S(C)(=O)=O | 5 | 13 | -0.2 | i |
| O=C(C[C@@H]1CC[C@H]2[C@@H](COC[C@H](O)CN2C(=O)Nc2ccc(F)cc2)O1)NC1CCC1 | 1 | -11 | -2.8 | i |
| Cc1ccccc1C(=O)N(C)[C@H]1C[C@H]2c3[nH]c4c(-c5ccc6c(c5)OCO6)cccc4c3CCN2C(=O)[C@H]1[C@H](C)O | 22 | 15 | 2.2 | i |
| COc1ccc(N2C(=O)c3n[nH]c(C(C)C)c3C2c2ccccc2)cc1 (stereo unspecified) | -45 | -71 | -15 | i |
| COc1ccc(S(=O)(=O)Nc2ccc3c(c2)C(=O)N([C@H](C)CO)C[C@@H](C)[C@H](CN(C)C(=O)Nc2cccc4ccccc24)OCCCC[C@@H](C)O3)cc1 | -2 | 2 | 1.7 | i |
| COC(=O)[C@@H]1[C@@H](CO)[C@@H]2Cn3c(ccc(C4=CCCCC4)c3=O)[C@@H]2N1CCC(F)(F)F | -7 | -1 | -2.1 | i |
| CCNC(=O)N1CCN(c2ccc(N3CCN(Cc4ccccc4)[C@H](C)C3)c(C)c2)[C@H](C)C1 | -8 | -10 | -1.7 | i |
| Cc1ccccc1-c1ccc(C2[C@@H]3CN(S(=O)(=O)Cc4ccccc4)C[C@H]2N3)cc1 (stereo partly specified) | -56 | -76 | -8.3 | i |
| O=C(NC1CCCC1)[C@@H]1CCCN1C(=O)[C@H](Cc1cccnc1)NC(=O)N1CCOCC1 | 28 | 19 | 1.8 | i |
| COc1ccc(S(=O)(=O)N(C)C[C@@H]2Oc3c(NS(=O)(=O)c4ccc(F)cc4)cccc3C(=O)N([C@@H](C)CO)C[C@H]2C)cc1 | -5 | -8 | -0.1 | i |

Screening data (PubChem)

An excerpt (hit frequency here may not be typical).
